# aSyn rescue: inhibitors of alpha-synuclein toxicity in yeast | Yeast expressing alpha-synuclein, growth rescue, BacTiter-Glo, 24 h | Potency, µM (highest dose often 46.1 µM), without a hit: top-dose growth rescue (activation), hits mostly activators | 370,000 tested, 0.14% active; further: potency means the concentration at half of the fitted maximal effect; % of control where 0% means no effect; nearly all actives have a fitted effect of over 65% in size
#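 Rescue of yeast growth: cells expressing toxic alpha-synuclein, induced in galactose at OD600 0.02, incubated with compound 24 h at 30 C. ATP luminescence quantified growth; inhibitors of toxicity appear as activators.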
# EPAC1 agonist: agonists of human EPAC1. O95398. EPAC1 agonist qHTS, biochemical assay; response scale: 100% = response to 6.5 mM cAMP. Potency, µM (highest dose often 154 µM), without a hit: top-dose activation, actives largely listed as activators. 360,000 tested, 0.073% active. AID 720707; further: potency means the concentration at half of the fitted maximal effect; nearly all actives have a fitted effect of over 60% in size
#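 EPAC1 100 nM, Rap1B–BODIPY-GDP 250 nM, unlabeled GDP 50 uM; compound titration; 5 min RT; kinetic read ex480/em540 at 5-min intervals ×30 min; data normalized to 6.5 mM cAMP agonist control.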
# EPAC1 antag: antagonists of human EPAC1; 360,000 tested, 0.14% active; AID 720709; Potency, µM (doses to about 115 µM), for inactives: at the highest dose activity change, negative = inhibition, hits mostly inhibitors; O95398; EPAC1 GEF assay, Rap1b-BODIPY-GDP exchange fluorescence;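 further: potency means the concentration at half of the fitted maximal effect; plate controls were vehicle for no effect and positive control for full effect; nearly all actives have a fitted effect of over 50% in size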
# FUS yeast rescue: FUS proteinopathy suppression in yeast; S. cerevisiae FUS-expressing, growth rescue, OD600, 24 h; Potency, µM (titrated, usually from 76.6 µM), for the others: top-dose growth rescue (activation), usual class: activators; 390,000 tested, 0.24% active; AID 1347120;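 further: potency means the concentration at half of the fitted maximal effect; plate controls were DMSO vehicle for no effect and reference control for full effect; nearly all actives have a fitted effect of over 55% in size; some results filed as inactive show a strong effect at the top dose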
#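 Steps: raffinose overnight preculture; dilution to OD 0.005 in 2% galactose minimal medium; compound addition (concentration series); 24hr at 30C, 99% humidity; absorbance read at 600 nm.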
# PI5P4K alpha inh: blocks human PI5P4K alpha kinase activity; PI5P4Kalpha enzyme, ADP-Glo luminescence, 60 min; active compounds read low; max response, %; 330,000 tested, 1.2% active; active means max response of -50% or lower; inconclusive means between -30% and -50%; inactive means -30% or higher; further: value at the top dose of about 77 µM; on the % scale 0 is the no-effect control and ±100 the full control effect
# Target sequence (P48426 whole entry, looked up): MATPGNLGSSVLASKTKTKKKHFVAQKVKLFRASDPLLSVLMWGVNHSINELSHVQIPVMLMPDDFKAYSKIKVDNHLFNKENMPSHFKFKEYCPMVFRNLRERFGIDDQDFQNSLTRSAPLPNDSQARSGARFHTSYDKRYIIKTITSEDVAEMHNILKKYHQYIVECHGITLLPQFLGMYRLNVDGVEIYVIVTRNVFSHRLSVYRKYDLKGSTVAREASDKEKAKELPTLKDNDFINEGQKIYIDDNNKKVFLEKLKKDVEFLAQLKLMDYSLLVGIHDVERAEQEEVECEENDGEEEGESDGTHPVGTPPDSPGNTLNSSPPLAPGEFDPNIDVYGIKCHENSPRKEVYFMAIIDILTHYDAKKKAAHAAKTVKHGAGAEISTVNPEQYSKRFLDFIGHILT
#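 PI5P4Kalpha ADP-Glo assay; 5 microM ATP final; 60 min RT reaction; HEPES pH 7.4/EGTA/CHAPS, 5% DMSO; controls lacking substrate or enzyme; luminescent end-point.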
# Abeta rescue: compounds reversing amyloid beta toxicity in yeast | yeast expressing A-beta42, growth rescue, OD600, 48 h; response scale: 0% DMSO, 100% iron-clioquinol control | Potency, µM (series often up to 46.1 µM), for the others: top-dose growth rescue, hits mostly activators | 410,000 tested, 0.063% active | AID 1347071; further: potency means the concentration at half of the fitted maximal effect; nearly all actives have a fitted effect of over 55% in size
#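 Yeast growth medium received pinned compounds, then yeast cells expressing toxic A-beta were added; plates incubated at 30 C for 48 hr. Growth read as absorbance at 600 nm, normalized to DMSO and equimolar FeCl3 plus clioquinol controls.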
# PLK1 PBD inh: blocks phosphopeptide binding to human PLK1 polo-box domain. 360,000 tested, 2.8% active. Potency, µM, for the others: max response, negative = inhibition, actives largely listed as inhibitors. Plk1 PBD binding of FITC phosphopeptide, fluorescence polarization. P53350; further: potency means the concentration at half of the fitted maximal effect; series mostly up to about 57 µM; on the % scale 0 is the no-effect control and ±100 the full control effect; nearly all actives have a fitted effect of over 65% in size
# Target sequence (P53350 whole entry, looked up, the tested form may be a part): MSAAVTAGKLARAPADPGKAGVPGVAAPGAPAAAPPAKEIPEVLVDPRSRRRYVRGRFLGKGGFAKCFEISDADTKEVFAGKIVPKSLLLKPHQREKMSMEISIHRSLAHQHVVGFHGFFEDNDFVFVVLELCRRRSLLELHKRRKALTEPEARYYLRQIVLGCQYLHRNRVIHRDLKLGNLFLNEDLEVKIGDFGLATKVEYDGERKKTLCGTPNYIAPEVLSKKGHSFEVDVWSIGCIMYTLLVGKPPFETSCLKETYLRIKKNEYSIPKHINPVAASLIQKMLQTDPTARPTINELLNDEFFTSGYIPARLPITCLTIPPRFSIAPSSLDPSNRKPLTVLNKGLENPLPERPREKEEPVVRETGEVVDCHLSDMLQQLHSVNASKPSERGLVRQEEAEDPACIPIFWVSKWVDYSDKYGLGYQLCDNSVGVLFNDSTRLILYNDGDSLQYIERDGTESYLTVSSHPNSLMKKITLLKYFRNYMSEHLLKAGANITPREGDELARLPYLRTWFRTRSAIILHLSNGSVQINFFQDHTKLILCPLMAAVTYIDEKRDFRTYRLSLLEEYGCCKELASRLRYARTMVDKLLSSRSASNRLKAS
# IL2 activator: activates IL-2 in a cell-based reporter assay. activation, % (series mostly up to about 46 µM). 360,000 tested, 0.065% active. IL-2 activation reporter assay, cell-based qHTS; stimulated with anti-CD3/CD4/CD28 beads; in transgenic mouse T cells; in the data active means activation above about 50%; inconclusive means mostly about 30% to 49%; further: 0% is about no effect
#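 Unstimulated transgenic mouse T cells; 60-min compound exposure; bead-based TCR/CD4/CD28 stimulation; 18 h culture, 37 degrees C; dual fluorescence (EGFP, DsRed) plate cytometry.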
# * marks the source's active call; other numbers are inactive results; ? = inconclusive; / = not tested or not shown; [ ] = remark or other dose. Unless noted, the call rests on the fitted dose curve; in most records, active means well fitted curve in the direction sought with a large enough effect; inconclusive means small, poorly fitted or top-dose-only effect, or another doubt; inactive means no such curve, though single readings can be large; an effect the other way counts as inactive or inconclusive. Some of the compounds tested; rates above refer to the full screens.
SMILES,aSyn rescue,EPAC1 agonist,EPAC1 antag,FUS yeast rescue,PI5P4K alpha inh,Abeta rescue,PLK1 PBD inh,IL2 activator
Cc1cc(C(=O)CCC(=O)NCC(=O)Nc2c(C)cccc2C)c(C)s1,-10.4%,-10.5%,-6.4%,20.7%,-27.6,6.3%,-4.2%,0.8
CCn1cnnc1SCC(=O)NCC1COc2ccccc2O1 (configuration not stated),0.5%[1.84 µM],3.8%,-12.6%,20.0%,6.4,6.9%,2.3%,-0.1
CC(=O)OCC1=C(C(=O)O)N2C(=O)C(NC(=O)c3ccc(COc4cccc(Cl)c4Cl)o3)C2SC1 (configuration not stated),-2.6%,-16.1%,-28.8%,7.9%,?,-9.4%,?,-3.3
COc1cc(OC)c(C2C(C#N)=C(N)Oc3cc(C)n(CCCN4CCOCC4)c(=O)c32)cc1OC (configuration not stated),-2.0%,3.8%,2.0%,-2.5%,0.0,8.9%,-2.2%,-1.6
Cc1cccc(NC(=O)CN2C(=O)N/C(=C/c3ccc(C)o3)C2=O)c1,-0.4%,2.2%,-8.8%,/,-51.2*,7.9%,2.9%,0.8
Nc1cc(=O)[nH]c(SCC(=O)NNC(=O)Cc2ccccc2)n1,-0.5%,-9.7%,-16.4%,8.0%,-0.7,5.9%,-3.9%,-0.2
COc1cc(/C=C(/C#N)c2nc3ccccc3[nH]2)ccc1OCc1ccc(C(=O)O)o1,-0.3%,-22.6%,-20.1%,/,?,-14.4%,?,1.2
CCCOc1ccc(C(=O)C(CN2CCCC2)c2ccccc2)cc1 (configuration not stated),8.4%,8.0%,?,19.1%,-9.6,0.0%,-7.0%,-6.8
CCN(CC)CCCn1c(C)cc2c(c1=O)C(c1cccc(Cl)c1)C(C#N)=C(N)O2 (configuration not stated),-4.2%,3.4%,12.2%,-0.6%,0.8,16.0%,-2.5%,3.1
O=C(CSc1ccc2c(c1)OCCO2)Nc1ccc(Cl)cn1,8.0%,0.6%,1.7%,-9.7%,5.2,3.2%,?,-0.4
COc1ccc(-c2nnc(-c3ccc(F)cc3)o2)cc1,6.3%,3.8%,-2.9%,-0.3%,9.3,-9.4%,2.0%,-2.8
CCn1c(=O)cc(SCC(=O)NCc2ccco2)c2ccccc21,0.3%,-5.5%,3.4%,12.5%,/,1.7%,-8.1%,0.3
CCc1cc2c(NC(C(=O)O)C(C)C)ncnc2s1 (configuration not stated),1.4%,3.9%,2.1%,9.4%,-20.3,18.1%,-6.6%,0.8
COc1ccc2cc(C#N)c(N3CCOCC3)nc2c1,0.2%,5.7%,?,11.1%,-0.6,3.3%,-4.7%,-0.6
CCCCCCOc1ccc(C(=O)O)cc1,-2.3%,3.7%,-15.2%,-36.8%,4.3,-1.0%,-1.5%,-1.9
O=C(COc1ccc2ccccc2c1)N1CCN(C(=O)c2ccco2)CC1,4.2%,3.6%,-20.2%,8.2%,-6.1,-5.0%,-14.7%,-3.8
COc1ccc(-c2cc(NC=O)c3ncc(-c4cccc(C(=O)N(C)C)c4)n3c2)cn1,0.3%,-26.7%,9.7%,23.5%,?,-12.9%,?,-0.2
CCCC(=O)N1CCC1(C)C(=O)Nc1scc(C)c1C#N (configuration not stated),-3.6%,6.3%,-13.4%,-11.0%,-21.3,-15.7%,-10.1%,-0.4
CCOCCCNc1nc2ccccc2[nH]1,2.9%,-0.1%,-5.6%,-17.0%,-4.5,16.6%,-4.7%,1.1
CCN1CCCC1CNS(=O)(=O)c1cccc(C(F)(F)F)c1 (configuration not stated),0.4%,-4.7%,-13.8%,-9.2%,0.8,-5.8%,-4.0%,0.3
CC1CCN(C(=O)CCNC(=O)Cn2cnc3sc4c(c3c2=O)CCCC4)CC1,-0.8%,-1.1%,25.3%,37.7%,4.6,-4.3%,-11.5%,-3.1
CC1(C(=O)NS(=O)(=O)C2CC2)CCCN(C(=O)COc2ccc(Cl)cc2Cl)C1 (configuration not stated),2.6%,0.0%,-1.6%,-0.7%,0.5,-3.0%,-11.2%,-0.2
CCC(C)c1ccc(C2C3=C(Nc4nc(N)[nH]c(=O)c42)c2ccccc2C3=O)cc1 (configuration not stated),-4.7%,4.5%,-1.9%,-5.4%,-18.2,-5.4%,-13.4%,1.3
CN(C)CCNC(=O)c1cccc(-c2cnc3c(NC=O)cc(-c4cccs4)cn23)c1,2.7%,9.4%,5.2%,13.1%,-4.2,-4.0%,-18.1%,-0.7
CCOc1ccc(C(=O)CCC(=O)N2CCC(C(=O)OC)CC2)cc1,-0.8%,19.4%,-1.0%,-18.6%,-2.3,7.1%,4.4%,-0.7
O=C(CNC(=O)Cn1cnc2sc3c(c2c1=O)CCCC3)NCc1ccccn1,-7.8%,4.1%,-26.3%,-5.9%,/,5.8%,0.7%,-1.2
CCOC(=O)c1sc(NC(=O)CSc2nc(C)cc(C)n2)c(C#N)c1C,-5.1%,2.6%,14.4%,3.5%,/,-11.8%,-10.5%,-1.8
Clc1ccc2oc3c(Cl)ncnc3c2c1,13.8%,6.0%,-14.2%,2.3%,3.4,-5.3%,-13.9%,-4.4
Cc1nn(-c2ccccc2)c2[nH]c(=O)c(CNCc3ccc4c(c3)OCO4)cc12,-0.8%,-0.8%,17.1%,39.0%,0.0,7.1%,-2.5%,-1.6
COCCNC(=O)C1(S(=O)(=O)c2ccccc2)CC=CC1,0.6%,-0.6%,3.9%,-12.2%,-0.5,-16.1%,-11.0%,-1.4
CCCCCCCCOc1ccc(C(=O)O)cc1,5.8%,-12.7%,-10.9%,-9.5%,52.3,5.4%,?,0.5
Cc1ccc2nc(NCc3ccccc3)[nH]c2c1,-6.7%,-8.1%,4.2%,-9.6%,4.4,-0.8%,-0.4%,2.0
CCCCCOc1ccc(C(C)(O)C(CN2CCOCC2)c2ccccc2)cc1 (configuration not stated),-3.2%,-5.3%,-25.9%,-2.0%,15.9,-4.3%,-7.1%,0.1
CC1CN(Cc2cc(=O)oc3cc(O)ccc23)CC(C)O1 (configuration not stated),-1.8%,6.4%,13.8%,15.1%,-1.2,2.8%,-4.4%,0.3
COc1cc(/C=C2\CCCc3c2nc2ccccc2c3C(=O)O)cc(OC)c1O,0.5%,-0.7%,8.4%,1.4%,-12.1,14.9%,26.7µM*,1.6
CC(=O)Nc1cc(-c2ccc(CO)cc2)cn2c(-c3ccc(F)cc3)cnc12,-0.7%,10.1%,?,0.7%,-22.6,-12.8%,?,0.6

# Part of the list above in order of SMILES length, rising.
SMILES,aSyn rescue,EPAC1 agonist,EPAC1 antag,FUS yeast rescue,PI5P4K alpha inh,Abeta rescue,PLK1 PBD inh,IL2 activator
Cc1ccc2nc(NCc3ccccc3)[nH]c2c1,-6.7%,-8.1%,4.2%,-9.6%,4.4,-0.8%,-0.4%,2.0
CC1CN(Cc2cc(=O)oc3cc(O)ccc23)CC(C)O1 (configuration not stated),-1.8%,6.4%,13.8%,15.1%,-1.2,2.8%,-4.4%,0.3
COCCNC(=O)C1(S(=O)(=O)c2ccccc2)CC=CC1,0.6%,-0.6%,3.9%,-12.2%,-0.5,-16.1%,-11.0%,-1.4
CCOc1ccc(C(=O)CCC(=O)N2CCC(C(=O)OC)CC2)cc1,-0.8%,19.4%,-1.0%,-18.6%,-2.3,7.1%,4.4%,-0.7
CCCCCOc1ccc(C(C)(O)C(CN2CCOCC2)c2ccccc2)cc1 (configuration not stated),-3.2%,-5.3%,-25.9%,-2.0%,15.9,-4.3%,-7.1%,0.1
CCOC(=O)c1sc(NC(=O)CSc2nc(C)cc(C)n2)c(C#N)c1C,-5.1%,2.6%,14.4%,3.5%,/,-11.8%,-10.5%,-1.8
O=C(CNC(=O)Cn1cnc2sc3c(c2c1=O)CCCC3)NCc1ccccn1,-7.8%,4.1%,-26.3%,-5.9%,/,5.8%,0.7%,-1.2
CC(=O)Nc1cc(-c2ccc(CO)cc2)cn2c(-c3ccc(F)cc3)cnc12,-0.7%,10.1%,?,0.7%,-22.6,-12.8%,?,0.6
Cc1nn(-c2ccccc2)c2[nH]c(=O)c(CNCc3ccc4c(c3)OCO4)cc12,-0.8%,-0.8%,17.1%,39.0%,0.0,7.1%,-2.5%,-1.6

# Next records follow:
SMILES,aSyn rescue,EPAC1 agonist,EPAC1 antag,FUS yeast rescue,PI5P4K alpha inh,Abeta rescue,PLK1 PBD inh,IL2 activator
O=C(CN1CCN(Cc2ccccc2)CC1)N/N=C/C=C/c1ccccc1[N+](=O)[O-],-6.3%,-3.1%,4.9%,7.2%,-1.2,-26.9%,3.0%,-0.1
CC(=O)Nc1ccc(NC(=O)CSc2ccc(-c3ccco3)nn2)cc1,-14.2%,-2.8%,-19.5%,?,?,6.4%,-26.9%,0.8
Nc1cc(=O)nc(SCC(=O)N2CCN(c3ccccc3)CC2)n1-c1ccc(F)cc1,-0.7%,-7.3%,4.5%,20.7%,0.6,?,1.0%,-2.8
Cn1c(SCC(=O)c2ccc3c(c2)OCCO3)nnc1C(F)(F)F,5.2%,15.8%,0.5%,6.9%,6.1,-3.3%,-2.2%,1.4
O=C(/C=C/c1ccccc1)CCN1CCOCC1,-78.9%[inhibitor],-3.4%,-5.6%,/,7.0,-83.5%[inhibitor],21.2µM*,-0.5
COc1cc(/C=C2\CCCc3c2nc2ccccc2c3C(=O)O)cc(Br)c1O,8.7%,-8.7%,17.1%,17.4%,-18.2,11.3%,-5.7%,0.4
Cc1ccc(C)c(NC(=O)CSc2nc3nc(-c4cccs4)cc(C(F)(F)F)c3c(=O)[nH]2)c1,0.5%,0.7%,-21.8%,23.5%,?,1.9%,21.2µM*,0.7

# Bioassay records (PubChem)
